Source: PubChem BioAssay
NPYLR7 ag = activates Aedes aegypti NPYLR7 receptor; actives 0.15% (n = 270,000); activation, % at 10 µM; HEK293T NPYLR7/Galpha15, GCaMP6s calcium fluorescence; in the data active = activation above about 40%;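 also: 0% = vehicle and 100% = reference agonist at the receptor; some compounds past the cut are filed as inactive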
NPYLR7 ag max-min = also measured in NPYLR7 ag; calls as there; activation, %; measured here: Max-Min RFU normalised activation; some inactives read as strong as hits;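 span of the calcium signal over five minutes; 0% = vehicle and 100% = native peptide agonist; compound fluorescence can raise it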
* marks the source's active call; other numbers are inactive results; & = joins results of further samples. Some of the compounds tested. The share of hits here may be higher or lower than overall.

molecule,NPYLR7 ag,NPYLR7 ag max-min
Cc1cc2nccc(-c3ccccc3)n2n1,0.9,-0.8
O=C1N(CCCc2cccnc2)C(=O)C2(CCN(CC3CC=CCC3)CC2)N1Cc1ccccc1 (stereo not drawn),-20.1,-18.8
CNC(=O)[C@@H]1C[C@H](N)CN1C(=O)Cn1c(C2CC2)nc2ccccc21,11.4,3.1
CC1(NS(=O)(=O)c2ccc3c(c2)CCCC3)CCS(=O)(=O)C1 (stereo not drawn),10.1,9.9
CC(OC(=O)c1cc2c(s1)CCC2)C(=O)NC(N)=O (stereo not drawn),7.4,12.2
COc1ccc(NC(=O)C2(C)CCN2Cc2c(F)cccc2F)cc1OC (stereo not drawn),7.4,1.3
CN1CCN(c2nc(-c3ccccn3)nc3c2CCNC3)CC1CCO (stereo not drawn),3.1,-0.1
COCCn1c(=O)[nH]c(=O)c2c(-c3ccc4ccccc4c3)ccnc21,-8.1,-12.8
NC(=O)c1ccccc1NCC(=O)Nc1cccc(F)c1,-5.6,-5.7
O=C(NCCN1C(=O)SC(=Cc2ccccc2F)C1=O)c1ccco1,18.9,12.3
COC1=NC(N)=C(S(=O)(=O)c2ccccc2)C(c2ccccc2)C1S(=O)(=O)c1ccccc1 (stereo not drawn),8.4,8.7
O=C(c1ccco1)N(Cc1nccn1Cc1ccc(Cl)c(Cl)c1)C1CC1,16.4,26.4
COc1cc(OC)nc(NC(=O)CCl)n1,-0.7,-0.7
COCCNC(=O)c1cnn2c(C(F)(F)F)cc(-c3ccc4c(c3)OCO4)nc12,-5.7,-13.0
O=C(NC(c1ccc(F)cc1)c1ccc2ccccc2n1)C1CCN(Cc2ccccc2)CC1 (stereo not drawn),5.0,3.2
CSc1nnc(C)c(=O)n1COC(=O)c1ccccc1I,-0.3,-3.5
COc1cc(C=CC(=O)c2ccccc2)cc(OC)c1OC,0.7,-0.8
CCc1nc(C)ccc1OCC(=O)NCCCN(C)C,9.5,9.3
FC(F)(F)c1cc(-c2cccs2)nc(NC2CCCC2)n1,1.8,1.4
CCOc1c(C)cnc2c1c(=O)n(CC(=O)NC1CCCCC1)c(=O)n2C,0.1,0.8

2 consecutive entries already listed, for reference:
molecule,NPYLR7 ag,NPYLR7 ag max-min
CCc1nc(C)ccc1OCC(=O)NCCCN(C)C,9.5,9.3
FC(F)(F)c1cc(-c2cccs2)nc(NC2CCCC2)n1,1.8,1.4

The list goes on.
molecule,NPYLR7 ag,NPYLR7 ag max-min
c1coc(-c2nc3nc4ccccc4nc3n2-c2ccc3c(c2)OCCO3)c1,-12.2,-16.9
Cn1c2c(c(=O)n(C)c1=O)C(c1cccc(Br)c1)C1=C(N2)c2ccccc2C1=O (stereo not drawn),1.7,0.2
O=C(CSC1CCS(=O)(=O)C1)Nc1ccc(F)cc1 (stereo not drawn),2.1,1.1
O=C(NC(c1ccc(Cl)cc1)c1cnccn1)C1CCN(CCCc2ccccc2)CC1 (stereo not drawn),18.4,8.4
C1CCC2(CC1)OCC1(CO2)COC2(CCCCC2)OC1,-3.2,-6.1
O=C(NCC1CCCN(Cc2c[nH]c3ccccc23)C1)c1ccc(F)cc1 (stereo not drawn),1.6,1.9
CCC(=O)c1cccc(NC(=O)c2ccc(C(N)=O)s2)c1,1.8,0.2
CCOC(=O)CSc1nnc(-c2ccc(F)cc2)n1-c1ccc(C)cc1,-2.1,3.0
COc1ccccc1OCCCOc1ccc(Br)cc1Cl,59.8*,53.5*
COc1ccc(OC)c(NC(=O)Cn2c(CCC(=O)O)ccc2-c2ccccc2)c1,-12.7,-19.1
Cn1ccc(C(=O)N2CCC(c3c[nH]c4ccccc34)CC2)cc1=O,-1.8,-4.1
CCOC(=O)C1CCCN(C(=O)c2csc(CN(C(=O)Nc3ccc(C(C)C)cc3)C(C)C)n2)C1 (stereo not drawn),18.5,19.0
COCCNC(=O)C(NC(=O)c1ccc2c(c1)OCO2)C1CCN(C(=O)c2ccc(C(F)(F)F)cc2)CC1 (stereo not drawn),10.6,14.2
O=C1CSC(c2cccnc2)N1c1ccc(Oc2ccccc2)cc1 (stereo not drawn),0.6,-1.7
Cc1nn(C2CCS(=O)(=O)C2)c2nc(-c3cccs3)cc(C(=O)N3CCC(C)CC3)c12 (stereo not drawn),1.4,4.5
CN(C)c1ccc(C2NC(C(=O)O)Cc3c2[nH]c2ccccc32)cc1 (stereo not drawn),4.7,-3.6
CN1C(=S)N(C2CCCCC2)C(=O)/C1=C\c1ccc(O)cc1O,32.2,36.2
NS(=O)(=O)c1ccc(CNC(=O)c2cc(=O)c(OCc3ccc(F)cc3)co2)cc1,1.7,3.9
Cc1oc(-c2ccsc2)nc1CS(=O)Cc1ccc(C#N)cc1 (stereo not drawn),10.9,7.6
CCOC(=O)c1c(NC(=O)COC(=O)c2cnccn2)sc(C)c1C,3.2,0.9
O=c1c2cnc(N3CCCCC3)nc2ccn1-c1ccc(Br)cc1,0.0,6.9
CCCc1nc(NC2CCNCC2)c2cnn(C)c2n1,6.5,4.2
Cc1cc(C)c(C(=O)Nc2cc(CC(C)(C)C)[nH]n2)c(=O)[nH]1,6.9,6.4
COc1ccccc1CCNC(=O)CN1CN(c2ccccc2)C2(CCN(S(=O)(=O)c3ccc(F)cc3)CC2)C1=O,-1.2,4.3
Cc1c(C(=O)Nc2cccc(C(C)O)c2)ncn1Cc1ccc(Cl)cc1 (stereo not drawn),0.3,-1.7
CCOC(=O)c1sc(N)nc1C,9.2,5.3
Cc1cc(C(=O)CN2CCN(S(C)(=O)=O)CC2)c(C)s1,10.2,5.3
CN(C)CCNC(=O)c1cnn(-c2ccc([N+](=O)[O-])cc2)c1C(F)(F)F,-3.0,1.6
O=C(Nc1ccc(F)cc1)c1csc(CSc2nnc(-c3cccnc3)n2-c2cccc(Cl)c2)n1,-3.0,3.1
c1ccc(-c2noc(CN3CCOc4ccccc4C3)n2)cc1,0.0,-4.7

A different layout for some results above.
The line under a structure holds: NPYLR7 ag | NPYLR7 ag max-min
COc1ccccc1CCNC(=O)CN1CN(c2ccccc2)C2(CCN(S(=O)(=O)c3ccc(F)cc3)CC2)C1=O
 : -1.2 | 4.3
Cc1c(C(=O)Nc2cccc(C(C)O)c2)ncn1Cc1ccc(Cl)cc1 (stereo not drawn)
 : 0.3 | -1.7

The results go on.
molecule,NPYLR7 ag,NPYLR7 ag max-min
C=CC[C@@H]1CC=C[C@@H](C)N1C(=O)C(=O)Nc1nnc(CC)s1,-1.7,9.6
CCOC(=O)N1CCN(C(c2ccc(C(C)C)cc2)C2Sc3nc(CC)nn3C2=O)CC1 (stereo not drawn),-6.1,-11.2
Cc1ccc(-n2nc3c(c2NC(=O)/C=C\c2ccccc2)CSC3)cc1,-3.0,0.7
CC1CCN(CCCC(=O)c2ccc(F)cc2)CC1,-2.6&2.9,-8.9&4.5
CCN1CCN(c2ncnc3c2nc2n3CCCCC2)CC1,4.0,-0.6
COCCCC1CCCCN1C(=O)Nc1ccc(C(C)=O)cc1 (stereo not drawn),-2.5,-1.7
Fc1ccc(Oc2cc(N3CCCNCC3)ncn2)cc1Cl,-11.4,-3.7
COCCCNc1nc2nonc2nc1N(C)Cc1cccc2ncccc12,-2.6,-5.2
COc1ccccc1N1CCN(c2ccc(NC(=O)C34CC5CC(CC(C5)C3)C4)cc2C(=O)NCCCN2CCOCC2)CC1,-2.0,1.7
COc1ccc(NC(=O)c2cn(C)c3c(=O)n(-c4ccccc4)c(=O)[nH]c23)cc1OC,3.1,0.3
Cc1sc(NC(=O)/C=C/c2ccccc2)nc1-c1ccccc1,-8.0,-11.6
Cc1ccc(S(=O)(=O)N(CCN2CCOCC2)CC(=O)N2CCc3sccc3C2COc2ccc(F)cc2)cc1 (stereo not drawn),-0.9,3.6
CCOC(=O)CSc1nnc(CNc2ccc(C)c(Cl)c2)n1C,3.7,3.0
NC(=N/N=C\c1ccccc1O)c1nonc1N,-19.2,-23.1
COCCn1c(=O)c2c(nc3n(-c4ccccc4Cl)c(C)cn23)n(C)c1=O,-1.8,9.0
COc1ccc(F)c(CN2CCCC(O)(CN(C)Cc3cnccn3)C2=O)c1 (stereo not drawn),23.2,11.6
CCOc1cc(S(=O)(=O)n2cnc(C)c2)c(OCC)cc1C,4.2,0.0
Cc1cc2ncn(CC(O)CN3CCOCC3)c2cc1C (stereo not drawn),3.9,0.3
CC(C)Oc1cccnc1C(=O)Nc1ccc2oc(=O)[nH]c2c1,-5.2,-7.5
CCNC(c1ccncc1)c1ccc(F)cc1 (stereo not drawn),-14.7,-18.5

Grouped by structure, those above containing two or more sulfur atoms
molecule,NPYLR7 ag,NPYLR7 ag max-min
CC1(NS(=O)(=O)c2ccc3c(c2)CCCC3)CCS(=O)(=O)C1 (stereo not drawn),10.1,9.9
COC1=NC(N)=C(S(=O)(=O)c2ccccc2)C(c2ccccc2)C1S(=O)(=O)c1ccccc1 (stereo not drawn),8.4,8.7
O=C(CSC1CCS(=O)(=O)C1)Nc1ccc(F)cc1 (stereo not drawn),2.1,1.1
Cc1nn(C2CCS(=O)(=O)C2)c2nc(-c3cccs3)cc(C(=O)N3CCC(C)CC3)c12 (stereo not drawn),1.4,4.5
Cc1oc(-c2ccsc2)nc1CS(=O)Cc1ccc(C#N)cc1 (stereo not drawn),10.9,7.6
Cc1cc(C(=O)CN2CCN(S(C)(=O)=O)CC2)c(C)s1,10.2,5.3
O=C(Nc1ccc(F)cc1)c1csc(CSc2nnc(-c3cccnc3)n2-c2cccc(Cl)c2)n1,-3.0,3.1
Cc1ccc(S(=O)(=O)N(CCN2CCOCC2)CC(=O)N2CCc3sccc3C2COc2ccc(F)cc2)cc1 (stereo not drawn),-0.9,3.6

Profiles from above. Order of values: NPYLR7 ag, NPYLR7 ag max-min
Record of `CCNC(c1ccncc1)c1ccc(F)cc1` (stereo not drawn) = -14.7, -18.5
Record of `Cc1sc(NC(=O)/C=C/c2ccccc2)nc1-c1ccccc1` = -8.0, -11.6
Record of `CCOc1cc(S(=O)(=O)n2cnc(C)c2)c(OCC)cc1C` = 4.2, 0.0
Record of `CC(C)Oc1cccnc1C(=O)Nc1ccc2oc(=O)[nH]c2c1` = -5.2, -7.5

Other entries.
molecule,NPYLR7 ag,NPYLR7 ag max-min
COc1ccc(C(=O)Nc2ccc(-n3nc(OC)nc3-c3ccc(F)cc3)cc2)c(OC)c1,-0.4,1.2
O=c1ccnc(SCc2ccc(Cl)c(Cl)c2)[nH]1,3.1,-1.4
O=C(COc1ccccc1F)Nc1c2c(nn1-c1nc3ccccc3s1)CCC2,4.5,2.5
CCS(=O)(=O)Oc1ccc(CN(CCOC)C(=O)Nc2ccc(Cl)cc2)cc1,-3.2,2.9
N#Cc1ccccc1/C=C/C(=O)NC(CN1CCOCC1)c1ccccc1 (stereo not drawn),13.6,12.8
CCN(CC)C(=O)Oc1ccc2c(ccn2Cc2ccc(C(F)(F)F)cc2)c1-c1ccc(OC)cc1,3.7,1.5
Cc1ccc(C(=O)Nc2c(N)nc(SCC(=O)NCC3CCCO3)[nH]c2=O)cc1 (stereo not drawn),0.5,0.6
CCOC(=O)Nc1cccc(OS(=O)(=O)c2ccccc2OC)c1,2.0,8.2
CCONC(=O)c1csc(CSc2nnc(-c3ccco3)n2-c2ccccc2Cl)n1,-15.4,-9.6
O=C(NCCN1CCOCC1)c1cc(-c2cccs2)nc2ccccc12,-5.6,4.7
Clc1cccc2c1CCN(c1ncnc3c1CCNC3)C2,-2.8,-1.6
O[C@@H](COc1cccc2ncccc12)CN1CCN(C2c3ccccc3[C@@H]3[C@H](c4ccccc42)C3(F)F)CC1 (stereo partly drawn),-2.2,-5.4
COc1ccc2[nH]c3c(c2c1)CCN(C(=O)c1cc(C)nc(Cl)c1)C3C(C)Cc1ccc2c(c1)OCO2 (stereo not drawn),9.1,-3.7
Cc1cnc(CNC(=O)CCCCN2Cc3ccccc3C2=O)cn1,0.4,-9.0
CCn1c(CN(C)CC2CCCN(CCc3ccccc3F)C2)nc2ccccc21 (stereo not drawn),5.0,0.7
CSCCC1NC(=S)N(Cc2ccnc(N3CCCC3)c2)C1=O (stereo not drawn),-9.9,-10.5
O=C(Nc1nnc(C(F)(F)F)s1)NC1CCN(CC2CC2)C1 (stereo not drawn),-5.5,-5.7
CC1(Cc2ccc(C(F)(F)F)nc2)C(=O)Nc2cccc(Cl)c21 (stereo not drawn),1.8,3.9
